Assay outcomes: PubChem BioAssay, National Center for Advancing Translational Sciences (NCATS)
VACV Venus inh = inhibitors of vaccinia virus (Venus reporter) | Potency, µM (series often up to 36.5 µM), for inactives: at the highest dose activity change, negative = inhibition, usual class: inhibitors | AID 720580 | Vaccinia virus Venus reporter expression, fluorescence | 330,000 compounds, 0.46% hits; active means well fitted inhibition curve with a large enough effect; inconclusive means small, poorly fitted or top-dose-only effect; inactive means no such curve, though single readings can be large or run the other way; tested in A549 cells; also: nearly all actives have a fitted effect of over 30% in size; inactives centre near -10
VACV mCherry inh = inhibitors of vaccinia virus infection (mCherry reporter signal); Vaccinia virus mCherry reporter infection, fluorescence; about a quarter of the inactives have no number; 310,000 compounds, 0.63% hits; Potency, µM (top dose mostly 36.5 µM), inactives show top-dose activity change, negative = inhibition, actives largely listed as inhibitors; active = well fitted inhibition curve with a large enough effect; inconclusive = small, poorly fitted or top-dose-only effect; inactive = no such curve, though single readings can be large or run the other way; tested in A549 cells; also: nearly all actives have a fitted effect of over 35% in size; inactives centre near -10
Starred values were filed as active, the others as inactive; i = inactive; ? = inconclusive; . = not tested or not shown; & = joins results of further samples; [ ] = remark or other dose. % is scaled to controls: 0 for no effect and ±100 for the full control effect; potency is read from the fitted curve at half-maximal effect.

SMILES	VACV Venus inh	VACV mCherry inh
CSc1ccccc1OCc1cc(C(=O)N2CCCC(C)C2)no1 (stereo not given)	-11%	i
CC(C)c1ccc(NS(=O)(=O)c2ccc3[nH]c(=O)ccc3c2)cc1	-18%	-8%
Cc1ccc(S(=O)(=O)Nc2ccc(-n3cnnn3)cc2)cc1	-16%	?
COC(C[C@@H]1O[C@H]1C(=O)[C@@H](C)OCc1ccccc1)OC	-12%	i
O=C(Nc1cccc(-c2nc3ccccc3[nH]2)c1)c1ccccc1F	-14%	-12%
O=C(c1ccc(COCC(F)(F)F)o1)N1CCCC1	-21%	-12%
O=S(=O)(NCc1ccc2c(c1)OCO2)c1cccc(S(=O)(=O)N2CCOCC2)c1	-27%	-1%
CN(Cc1ccccc1)S(=O)(=O)c1ccc(Cl)c(C(=O)NCc2ccncc2)c1	-16%	-23%

Structural class: the entries above containing a carbonyl joined to an NH by a bond outside any ring.
SMILES	VACV Venus inh	VACV mCherry inh
O=C(Nc1cccc(-c2nc3ccccc3[nH]2)c1)c1ccccc1F	-14%	-12%
CN(Cc1ccccc1)S(=O)(=O)c1ccc(Cl)c(C(=O)NCc2ccncc2)c1	-16%	-23%

The results go on.
SMILES	VACV Venus inh	VACV mCherry inh
Brc1cccc(OCCn2ccnc2)c1	-6%	i
CCCC(c1nnnn1C1CCCCC1)N1CCN(C2CCCC2)CC1 (stereo not given)	-1%	.
CCc1sc(C(=O)NCc2ccccc2)cc1C	-13%	i
COC(=O)C1CCN(S(=O)(=O)c2cc3c4c(c2)CCN4C(=O)CC3)CC1	-11%	-15%
NC(=O)c1cc(Cl)cn(-c2ccccc2)c1=O	-3%	i
CCSc1cnn(-c2ccccc2)c(=O)c1Cl	-20%	-22%
Cc1ccc(CN2CCN(/N=C\C=C\c3ccccc3)CC2)cc1	-8%	-16%
CN(Cc1ccno1)Cc1cn(Cc2ccccc2)nc1-c1ccc2c(c1)OCO2	-1%	-7%
COc1ccc(NC(=O)N2CCc3c(sc4c3CCCC4)C2c2ccccc2OC)cc1 (stereo not given)	-15%	-16%
CC(=O)c1ccc(NC(=O)C(C)OC(=O)CCCN=C2NS(=O)(=O)c3ccccc32)cc1 (stereo not given)	-10%	i
CCS(=O)(=O)c1ccc(O)c(NC(=O)COc2ccc(Br)cc2)c1	0%	-22%
CCCC(=O)c1ccc(OC(=O)c2c(-c3ccccc3Cl)noc2C)cc1	-19%	-12%
O=C(Cn1cnc2onc(-c3ccc(Cl)cc3)c2c1=O)Nc1ccc(F)cc1	-15%	-7%
O=c1c2ccccc2nc(/C=C/c2ccc(F)cc2)n1-c1ccccn1	2%	i
O=C(CN1C(=O)NC(Cc2c[nH]c3ccccc23)C1=O)NCCc1ccccc1 (stereo not given)	-10%	i
COc1ccc(NC(=O)CC2C(=O)N(c3ccc(OC)cc3)C(=O)N2C(C)C)cc1 (stereo not given)	-12%	-19%
CCOC(=O)C1CCN(C(=O)Nc2cccc(OC)c2)CC1	-4%[7.34 µM]	i[7.34 µM]
Cc1cc(C)n(CC(O)COc2cccc(OCC(O)Cn3nc(C)cc3C)c2)n1 (stereo not given)	-21%	.
Cc1ccc(NC(=O)C2(C)CCN2Cc2ccc(OC(C)C)cc2)cc1 (stereo not given)	-9%	i
COCCCn1cc(CN2CC(N3CCN(CCN(C)C)CC3)CS2(=O)=O)nn1 (stereo not given)	1%	-1%
CCOC(=O)c1c(O)c(Cl)c(C)[nH]c1=O	3%	-3%
CC(Sc1ccc(Cl)cc1)C(=O)Nc1ccccc1-c1ccccc1 (stereo not given)	-26%	i
COc1cccc(C2CC(C(F)(F)F)n3ncc(C(=O)O)c3N2)c1 (stereo not given)	12%	6%
CCOCCCNC(=O)c1cc2c(=O)[nH]c3ccccc3c2s1	-3%	-9%
CC(=O)N(C)Cc1ccc(C(=O)CSc2nnc(C3CC3)n2C2CC2)cc1	-3%	-16%
COc1ccccc1CCNC(=O)c1ccc(NC(=O)CC2SC(N3CCCC3)=NC2=O)cc1 (stereo not given)	-5%	-15%
CN(C)C(=O)c1ccc(Nc2nnc(-c3ccc(O)cc3)c3ccccc23)cc1	-8%	0%
C/C(=N/NC(=O)c1ccoc1C)c1ccc(N2CCOCC2)cc1	13%	-10%
O=C(CN1C2=NCCN2c2ccccc21)C12CC3CC(CC(C3)C1)C2	?	.
COc1ccc(/C=C/C(=O)NCc2ccccn2)cc1	-9%	-13%
COc1ccccc1-c1ccnc(-n2ncc(C(=O)NCc3cccc(C)n3)c2C)n1	6%	-12%
CC1(C(=O)Nc2ccc3ccccc3c2)CCC(=O)N1CCc1c[nH]c2ccccc12 (stereo not given)	-4%	18%
O=C(COC(=O)c1cccnc1Cl)NCc1cccs1	-1%	-13%
COc1ccccc1N1CCN(c2ncnc3nc[nH]c23)CC1	-6%	-10%
CCc1ccc2c(c1)c(=O)c(S(=O)(=O)c1ccc(Cl)cc1)cn2CC	-9%	-9%
CC(Nc1oc(-c2ccco2)nc1C#N)c1ccccc1 (stereo not given)	-17%	i
Cc1cc(C)c2c(=O)cc(C(=O)Nc3sc4c(c3C(=O)NCc3ccco3)CCCC4)oc2c1	-6%	-7%
CCN(CC(=O)NCc1cccs1)C(=O)/C=C/c1cccc(Cl)c1Cl	-17%	-19%
CC(=O)Nc1ccc(C2(O)COc3ccccc3O2)cc1 (stereo not given)	-14%	-16%
Cc1ccc(N2C(=O)c3ccc(N)cc3C2=O)cc1	?	?
CCOC(=O)c1c(NC(=O)Cn2nc(C(=O)O)c3ccccc3c2=O)sc(CC)c1C	7%	i
COc1cc(-c2nc(C(=O)NC3CCN(Cc4ccccc4)CC3)cc3c2[nH]c2ccccc23)cc(OC)c1OC	-30%	?
COc1ccc(C(=O)COC(=O)CCNS(=O)(=O)c2ccccc2)c(OC)c1	-7%	i
O=C(Nc1cccnc1)c1cn(-c2ccccc2)nc1-c1cccs1	0%	-5%
CCOc1cccc(C(=O)Nc2ccc(N3CCCC3)cc2)c1	-26%	-23%
CCC(C(=O)NCc1cccs1)n1nc(C)n2c(cc3occc32)c1=O (stereo not given)	-20%	-12%
COc1cc(OC)c(/C=C/c2cc(/C=C/c3c(OC)cc(OC)cc3OC)[n+](C)c3ccccc23)c(OC)c1	-7%	?
O=C(c1cc(Cl)ccc1Cl)N1CCN(c2ccccn2)CC1	-5%	-9%
CCCSc1ncc(Cl)c(C(=O)Nc2sc3c(c2C(=O)NCC)CCCC3)n1	?	-28%&-29%
Oc1ccc(Cl)cc1C1=Nc2ccccc2N=C(c2ccccc2)C1	-2%	-15%
CCc1nnc2c3ccccc3nc(Nc3ccc(F)cc3C)n12	?	?
Cc1ccccc1CSCCNC(=O)COc1ccc(Cl)cc1	-1%	-1%
CCc1ccc(-n2nc(C)c3c(C(=O)Nc4cccc(C(F)(F)F)c4)cc(C)nc32)cc1	-5%	-7%
COc1cccc(N2C(=O)CC(N3CCN(C(=O)c4ccco4)CC3)C2=O)c1 (stereo not given)	0%	2%
CC1(C)OC(=O)C2(Cc3ccc(Cl)cc3N3CCCC32)C(=O)O1 (stereo not given)	11%	26%
Cc1ccc(Oc2ncccc2COC(=O)Nc2ccccc2C)cc1	-7%	-15%

Gathered by group: those above containing a COOH group (2)
SMILES	VACV Venus inh	VACV mCherry inh
COc1cccc(C2CC(C(F)(F)F)n3ncc(C(=O)O)c3N2)c1 (stereo not given)	12%	6%
CCOC(=O)c1c(NC(=O)Cn2nc(C(=O)O)c3ccccc3c2=O)sc(CC)c1C	7%	i

(listing goes on)
SMILES	VACV Venus inh	VACV mCherry inh
CC1C(NC(=O)/C(=N/OC(C)(C)C(=O)O)c2csc(N)n2)C(=O)N1S(=O)(=O)O (stereo not given)	-3%	-13%
C=CCN(CC=C)CCOc1cccc(Oc2ccccc2)c1	-4%	-4%
COc1cccc(Cn2nnc(C(=O)Nc3cc(C)ccc3OC)c2N)c1	-14%	-20%
COC(=O)c1ccc(NC(=S)N2CCC(C(N)=O)CC2)cc1	-4%	-9%
COc1ccccc1NC(=O)Nc1ccc2c(c1)nnn2C	-6%	.
Cc1ccccc1-c1cccc([C@@H]2C[C@H]3[C@H](CON3C)CN2C(=O)C(C)(C)C)c1	0%	i
O=C(Oc1cccc(N2C(=O)CCC2=O)c1)C1CC(=O)N(c2ccc(F)cc2)C1 (stereo not given)	-2%	1%
Cc1ccc(SCCNC(=O)c2ccccc2)cc1	-17%	-22%
CCCCn1nc(NC(=O)CC(C)C)c2cc3cc(OC)ccc3nc21	-6%	i
COc1cc(OC)c(N(C)C(=O)CSc2c3c(nc4ccc(Cl)cc24)CCCC3)cc1Cl	-10%	-13%
CN(Cc1ccccc1)C(=O)c1csc(COCCO)n1	-1%	1%
COc1ccc(C(C(=O)NC(C)(C)C)n2c(COc3ccc(C)cc3)nc3ccccc32)cc1 (stereo not given)	-23%	-19%
CC(=O)Nc1ccc2nc3c(=O)n(C)c(=O)n(C)c3nc2c1C	14%	2%
COc1ccccc1N1CCN(C(=O)CSc2nc(-c3ccccc3)cc(=O)[nH]2)CC1	-15%	.
COc1cc(SC)ccc1C(=O)OCC(=O)N1CCN(C(C)=O)CC1	-16%	-3%
CCOC(=O)C1CCN(C(=O)Cn2nc(CC)n3cccc3c2=O)CC1	-8%[7.34 µM]	i[7.34 µM]
Cn1c(SCC(=O)c2ccccc2)nnc1C1CC1	-7%	i
Cn1nc(Oc2ncc(C(F)(F)F)cc2Cl)cc1C(F)(F)F	-1%	7%
O=c1c2c3c(sc2nc2n1CCCCC2)CCC3	-12%	.
COc1ccc(-c2cc(C(=O)Nc3c(C)n(C)n(-c4ccccc4)c3=O)c3ccccc3n2)cc1OC	-7%	-14%
O=C(NNc1cccc(Cl)n1)Nc1cccc(C(F)(F)F)c1	-14%	?
CC12COC3(C(=O)Nc4ccc5ccccc5c4)CC1CCC32C (stereo not given)	-10%	i
CCn1c(O)c(C=Nc2ccc(S(N)(=O)=O)cc2)c(=O)[nH]c1=S	84%[activator]	58%[activator]
CCOc1cc([N+](=O)[O-])cc2c1C(=O)Nc1ccccc1O2	34%[activator]	i
CC(=O)c1ccc(NS(=O)(=O)c2cc(-c3cc(C)no3)ccc2C)cc1	-19%	-28%
O=C(CCc1ccccc1)Nc1ccnn1C1CCN(Cc2ncc[nH]2)CC1	-13%	i
CNC[C@H](CC1CCCCC1)NC[C@H](Cc1ccccc1)NCCC12CC3CC(CC(C3)C1)C2	10µM*	?
CC1(C)CC(=O)c2c(nc3ccccc3c2N)C1	-21%	.
O=C(NCc1ccco1)c1ccc(-c2ccc(F)c(F)c2)c2ccoc12	-13%	17%
CC(NC(=O)c1ccc(F)cc1)c1ccc2c(c1)CCCC2 (stereo not given)	?	.
O=C(NCC(c1cccs1)N1CCOCC1)c1ccccc1NS(=O)(=O)c1cc([N+](=O)[O-])ccc1Cl (stereo not given)	-9%	-6%
C=CCc1cc(C=O)cc(OC)c1OCc1ccc(Cl)cc1	2%	.

In another format: results already given
CC(NC(=O)c1ccc(F)cc1)c1ccc2c(c1)CCCC2 (stereo not given)
  VACV Venus inh: ?
  VACV mCherry inh: .

C=CCc1cc(C=O)cc(OC)c1OCc1ccc(Cl)cc1
  VACV Venus inh: 2%
  VACV mCherry inh: .

O=C(CCc1ccccc1)Nc1ccnn1C1CCN(Cc2ncc[nH]2)CC1
  VACV Venus inh: -13%
  VACV mCherry inh: i

The list goes on:
SMILES	VACV Venus inh	VACV mCherry inh
O=C(CN1C(=O)C2CCCCC2C1=O)OCn1nnc2ccccc2c1=O (stereo not given)	-14%	0%
CCOc1ccccc1Oc1ncnc2c1oc1ccccc12	-6%	-22%
COc1ccc(NS(=O)(=O)c2ccc(NC(=O)C(CCSC)NC(N)=O)cc2)cc1 (stereo not given)	6%	-8%
Cc1ccc(-c2nnc(Nc3ccc(C(N)=O)cc3)c3ccccc23)cc1S(=O)(=O)NCC1CCCO1 (stereo not given)	-11%	-11%
O=C(CSc1nccn1-c1ccccc1)c1ccc(Br)cc1	6%	.
COc1ccc(C(=O)C23CN4CN(CN(C4)C2)C3)cc1	-7%	i
CCN(CC)S(=O)(=O)c1cc(NC(=O)C(C)N2CCN(Cc3ccc4c(c3)OCO4)CC2)ccc1C (stereo not given)	?	-25%
COc1ccc(C(=S)N2CCOCC2)cc1OC(=O)c1ccc([N+](=O)[O-])cc1[N+](=O)[O-]	-28%	?

Single values from the entries so far:
VACV mCherry inh with `CCOC(=O)c1c(O)c(Cl)c(C)[nH]c1=O` : -3%
VACV Venus inh with `O=S(=O)(NCc1ccc2c(c1)OCO2)c1cccc(S(=O)(=O)N2CCOCC2)c1` : -27%
VACV mCherry inh with `CCOCCCNC(=O)c1cc2c(=O)[nH]c3ccccc3c2s1` : -9%

Next entries.
SMILES	VACV Venus inh	VACV mCherry inh
Cn1cc(C(=O)NP(=O)(N2CCOCC2)N2CCOCC2)c2ccccc21	3%	i
CC(C)(C)c1ccccc1NC(=O)c1ccc2c(c1)SC1=NS(=O)(=O)CCN12	-2%	-15%
Nc1nonc1C(=O)N1CCCCC1	-1%	-5%
O=S(=O)(Nc1nc2ccccc2nc1NCCO)c1cccc(Cl)c1	4%	-6%
CCc1ccc(-n2nc(CO)c(C(=O)NCCOC)n2)cc1	-4%	-5%
